T cruzi inh = inhibitors of intracellular T. cruzi growth, primary screen, luminescence, NIH3T3 host cells; T. cruzi beta-gal in NIH3T3, 90 h; inhibition, % (test concentration not listed); actives 1.4% (n = 300,000); AID 1885, 2009;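 active = mean inhibition across valid replicates above about 55%, limit read from the data; inconclusive = mean below that limit but half or more replicates reach it; inactive = mean below it, under half of replicates reach it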;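 also: signal also drops with host cell toxicity which is not excluded here; 0% = plate median of DMSO wells and 100% = zero luminescence signal; higher percent means less beta-gal luminescence so fewer parasites; stock transfer was 50 nL into about 50 µL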
UCH37 DUB inh = inhibitors of human UCH37 deubiquitinase, primary screen, biochemical, Ub-AMC cleavage, fluorescence | AID 588478, 2011 | inhibition, % (concentration not given with the values) | purified proteasome/UCH37 | actives 0.33% (n = 330,000);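 active = mean of two replicates above 20%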;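 also: 0% = compound-free wells with enzyme and 100% = wells lacking proteasome; stock transfer was 100 nL into about 20 µL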
Target sequence (Q9Y5K5 whole entry, looked up): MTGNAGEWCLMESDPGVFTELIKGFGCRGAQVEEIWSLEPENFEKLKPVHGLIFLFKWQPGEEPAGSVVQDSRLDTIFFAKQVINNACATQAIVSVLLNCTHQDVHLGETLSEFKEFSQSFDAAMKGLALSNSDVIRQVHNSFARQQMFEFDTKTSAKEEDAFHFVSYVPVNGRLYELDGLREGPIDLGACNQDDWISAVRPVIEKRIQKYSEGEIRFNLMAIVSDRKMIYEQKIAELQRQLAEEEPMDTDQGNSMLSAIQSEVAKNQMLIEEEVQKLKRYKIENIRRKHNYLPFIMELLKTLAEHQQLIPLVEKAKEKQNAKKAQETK
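Material: human UCH37 enzyme supplied as purified proteasome complex. Measure: % inhibition of Ub-AMC cleavage fluorescence. Medium: pH 7.4 Tris-HCl (50 mM) with ovalbumin, ATP-MgCl2, DTT. Times: 30 min preincubation with enzyme, 25 min cleavage at room temperature. Detection: AMC fluorescence intensity at 355/460 nm.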
B2AR ag = beta2AR agonists driving receptor internalization, primary screen, cell-based, FAP fluorogen, flow cytometry; Beta-2 adrenergic receptor (Homo sapiens), P07550; Am2.2-beta2AR cells; reference of the scale not given here; response, % (concentration not given with the values); actives 0.43% (n = 340,000); AID 504454, 2011;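 active = response above a set limit, near 3 SD of response in nonfluorescent compounds, cut at about 42% in these data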;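 also: stock transfer was 100 nL into about 11 µL; a reference agonist was the positive control; negative values mostly stem from fluorescent compounds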
Target sequence (P07550 whole entry, looked up): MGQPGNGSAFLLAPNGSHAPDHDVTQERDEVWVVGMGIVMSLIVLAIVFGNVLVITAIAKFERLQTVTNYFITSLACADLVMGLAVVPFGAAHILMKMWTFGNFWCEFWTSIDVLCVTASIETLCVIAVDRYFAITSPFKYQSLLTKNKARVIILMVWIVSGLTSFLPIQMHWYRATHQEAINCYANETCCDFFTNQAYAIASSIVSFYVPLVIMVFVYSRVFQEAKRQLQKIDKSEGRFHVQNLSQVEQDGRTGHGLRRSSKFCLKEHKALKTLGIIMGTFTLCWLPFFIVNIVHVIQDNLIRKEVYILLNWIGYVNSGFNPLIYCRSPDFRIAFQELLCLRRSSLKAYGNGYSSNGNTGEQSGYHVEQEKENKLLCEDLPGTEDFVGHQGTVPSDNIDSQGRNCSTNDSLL
Bfl-1 A1 inh = caspase 3/7 activation in MEF A1-2A-BIM cells, primary screen, A1 inhibitor project, cell-based, luminescence, HTS. Caspase-Glo 3/7 luminescence, 3 h; percent of clofoctol response, vehicle zero. caspase activation, % (test concentration not listed). actives 0.066% (n = 330,000). AID 2462, 2010;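 active = over half of replicate activation scores above 10%, or exactly half above 10 with the replicate mean above 10; inconclusive = replicate mean below 10 yet half the replicates above 10; inactive = over half of replicates below 10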;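 also: wells of about 30 µL received 50 nL stock; many hits fall short of the cut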
LANA-H2A inh = blockers of LANA interaction with H2A/H2B – biochemical, FP readout, HTS, primary screen | inhibition, % (test concentration not listed) | AID 2629, 2010 | Protein LANA1 (Human herpesvirus 8 type P (isolate GK18)), Q9QR71 | actives 0.6% (n = 320,000) | cell-free LANA-H2A/H2B peptide, fluorescence polarization; in the data active = inhibition mostly above about 10%, no sharp cut-off; inactive = mostly below about 6.7%;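 also: stock transfer was 7.5 nL into about 10 µL; 0% = median of vehicle wells and 100% = median of positive control wells; one replicate is shown; the record names a cut of 25% in any replicate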
RanGTP-Imp inh = inhibitors of RanGTP-importin-beta interaction, primary screen, biochemical, FRET, CFP-Ran, YFP-importin-beta, homogeneous | AID 2216, 2009 | actives 1.1% (n = 300,000) | Ran GTPase (GTP-bound) - importin-beta complex | inhibition, % (test concentration not listed) | cell-free CFP-Ran/YFP-importin-beta FRET ratio;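 active = most replicates above 15%; inconclusive = exactly half above 15%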;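 also: 0% = DMSO wells and 100% = Ran loaded with GDP instead of GTP; wells of about 40 µL received 100 nL stock; the first replicate is given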
Calb FLC = C. albicans growth inhibition with fluconazole, primary screen, CaCi-2 strain, Alamar Blue fluorescence; C. albicans CaCi-2 (fluconazole-resistant clinical isolate) + fluconazole, 48 h; AID 1979, 2009; growth inhibition, % (test concentration not listed); actives 0.57% (n = 300,000);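 active = most replicates above 75%; inconclusive = exactly half above 75%; inactive = most below 75%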;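 also: all wells also contain fluconazole at 8 µg/ml as a sub-toxic cotreatment; 0% = median of DMSO wells and 100% = median of geldanamycin control wells; wells of about 8 µL received 7.5 nL stock; the first replicate is given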
Beta cell apopt = inhibitors of cytokine-induced beta cell apoptosis, primary screen, luminescence | actives 0.8% (n = 300,000) | INS-1E cytokine-induced death, ATP luminescence, 48 h; percent of positive-control rescue, neutral wells zero | protection from apoptosis, % (no concentration beside the values);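 active = all replicates at 75% or more, or half of them and the mean; inconclusive = half reach 75% but not the mean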;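 also: 0% = cytokine-treated negative control wells and 100% = positive control rescue; higher means more ATP so stronger rescue from cytokine killing; wells of about 40 µL received 100 nL stock; the first replicate is given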
The depositor's hits bear a star; ? = inconclusive; . = no result given. This is a random part of the collection; about 4.3% have a hit in one of these screens.

SMILES	T cruzi inh	UCH37 DUB inh	B2AR ag	Bfl-1 A1 inh	LANA-H2A inh	RanGTP-Imp inh	Calb FLC	Beta cell apopt
CCOC(=O)c1ccc(NC(=O)CN2C(=O)CSC(C)C2=O)cc1 (stereo unspecified)	-20	1.6	-3	0.4	-1.1	3.7	-3	-2
C(=C\c1nc(-c2ccccc2)no1)/c1ccccc1	0	4.4	8	-3.8	7.1	-4.7	1	1
C/C(Cl)=C/CSc1nc2c(c(=O)[nH]c(=O)n2C)n1C(C)C	.	4.7	0	0.0	3.6	4.0	-2	1
O=C(C[n+]1cc(-c2ccccc2)n2c1CCC2)N1c2ccccc2Sc2ccccc21	40	6.9	1	-0.5	3.9	-4.7	-2	-1
COCCN(C(=O)Cn1nnc2ccccc21)C(C(=O)NC1CCCC1)c1ccc(OC)cc1OC (stereo unspecified)	7	3.5	12	-0.6	-5.1	2.8	20	-2
NNc1nc2cccnc2n(CCNc2ncc(C(F)(F)F)cc2Cl)c1=O	13	-1.5	-7	-0.1	-1.6	-4.6	16	4
CCOC(=O)C1CCN(CCC(=O)Nc2ccccc2)CC1	-18	-2.5	3	-0.3	6.3	3.2	5	12
O=C(COC(=O)/C=C/c1ccccc1)NCc1ccccc1Cl	0	2.3	8	-0.1	5.9	0.6	-13	-1
COc1cccc(C(=O)N/N=C2\SCC(=O)N2Cc2ccc3c(c2)OCO3)c1	-9	.	3	-0.3	0.1	-4.7	-5	-1
Cc1nc(CN2CCOCC2)cc(=O)[nH]1	-1	3.5	3	-0.2	1.3	-3.3	-3	4
CCOC(=O)C1CCN(C(=O)CN(c2cccc(OC)c2)S(=O)(=O)c2ccccc2)CC1	-10	-1.3	0	0.1	2.3	1.5	-10	-6
O=C(Nc1ccc(N2CCOCC2)c(Cl)c1)c1cc(F)c(F)cc1Cl	6	-1.3	7	0.1	3.6	-0.2	0	0
O=C(Nc1ccccc1)NN(C(=O)CCl)c1ccccc1	-2	1.7	19	-0.6	1.0	-3.5	-1	-41
Cc1cccc[n+]1CC(=O)c1ccccc1	-6	4.0	-1	3.5	0.4	6.2	1	-5
CCCNC(=O)c1c(N)n(-c2ccc3c(c2)OCO3)c2nc3ccccc3nc12	-6	-10.0	-4	-0.3	-0.4	2.5	3	0
Cc1ccc(CNc2ccc3c(c2)ncn3C(C)C)cc1	2	-6.4	2	0.6	2.1	?	9	3
CCc1ccc(S(=O)(=O)NC(CC(=O)O)c2ccccc2)cc1 (stereo unspecified)	-17	3.8	-2	0.3	-0.4	-3.7	-5	.
NS(=O)(=O)c1ccc(NC(=S)NC(=O)c2cccs2)cc1	-12	.	-1	0.9	-0.3	2.9	4	-2
Cc1ccc(C(C)NC(=S)NCc2ccc(F)cc2)c(C)c1 (stereo unspecified)	-16	-0.2	3	0.7	1.6	4.7	-12	-4
Nc1nc2c([N+](=O)[O-])cccc2s1	-3	4.9	8	-0.5	-1.3	-1.0	-9	-4
C=CCOc1cccc(C(=O)N2CCCC(Nc3ccc(F)cc3)C2)c1 (stereo unspecified)	3	3.6	-4	0.8	1.4	?	4	-5
Cc1ccc(S(=O)(=O)CCC(=O)OCc2ccc(Cl)c(Cl)c2)cc1	11	2.7	12	-0.9	-6.0	0.8	-1	3
O=C(CSc1ccc2ccccc2c1)NCCc1ccc(O)c(O)c1	-31	0.0	3	3.1	4.0	5.3	4	-37
COc1ccccc1C(=O)Nc1ccc(NC(=O)c2ccco2)c(C)c1	13	-0.1	-1	-11	-0.9	-1.2	-3	11
COC(=O)c1cc2ccsc2n1Cc1nc(-c2ccc(Cl)cc2)oc1C	29	5.8	6	0.5	2.1	-4.6	-6	0
O=C(Cc1cccs1)N/N=C/C=C\c1ccccc1[N+](=O)[O-]	10	.	-1	0.0	4.0	1.4	-9	.
Cc1noc(C)c1COC(=O)c1cc(S(=O)(=O)N2CCOCC2)ccc1F	.	-1.3	12	0.2	31*	.	.	6
COc1cc2c(cc1OC)CN(CC(=O)Nc1ccccc1C(=O)NCc1ccccc1)CC2	13	2.5	21	0.3	-2.4	3.2	9	-6
COc1cc(OC)cc(-n2nc(C(=O)N3CC(C)CC(C)C3)c3ccccc3c2=O)c1 (stereo unspecified)	4	0.3	-5	-0.8	-1.2	.	-11	-5
CC(C)n1nc(CC(=O)O)c2ccccc2c1=O	2	2.2	-1	-0.6	-1.1	1.5	-15	-3
Cc1cc(C(=O)N/N=C/c2ccc3c(c2)OCO3)c(C)n1-c1ccc(F)cc1	15	.	-2	-1.4	1.4	2.7	9	-4
CC(Oc1ccc(Br)cc1)C(=O)NNC(=O)CCN1CCN(c2ccccc2)CC1 (stereo unspecified)	-16	5.0	-1	-0.6	3.4	-3.0	7	-6
CCNC(=S)NNc1nnc(-c2ccccc2)c(-c2ccccc2)n1	13	4.8	1	-0.1	-1.5	9.2	?	4
COc1ccccc1NC(=O)C(C)Sc1nnnn1C (stereo unspecified)	-2	2.0	-2	-0.3	-8.6	1.9	-5	-3
Cc1ccc2cccc(NC(=S)NC(=O)c3ccn(C)n3)c2n1	8	2.6	12	-1.0	1.3	4.9	9	2
CC(C)(C(=O)c1ccccc1)/[N+]([O-])=C/c1ccc(F)cc1	-17	3.9	-1	0.3	0.8	1.5	1	-1

Structures listed so far shown as hits in LANA-H2A inh:
smiles | UCH37 DUB inh | B2AR ag | Bfl-1 A1 inh | LANA-H2A inh | RanGTP-Imp inh
Cc1noc(C)c1COC(=O)c1cc(S(=O)(=O)N2CCOCC2)ccc1F | -1.3 | 12 | 0.2 | 31* | .

Continuation.
SMILES	T cruzi inh	UCH37 DUB inh	B2AR ag	Bfl-1 A1 inh	LANA-H2A inh	RanGTP-Imp inh	Calb FLC	Beta cell apopt
CC(C)n1cc(CN2CCC(C(=O)Nc3cccc(-c4cccc(Cl)c4)c3)CC2)cn1	36	6.6	-4	1.7	2.4	-5.1	21	7
Cc1ccc(S(=O)(=O)N(C)c2ccccc2C(=O)N2CCOCC2)cc1	-8	2.6	-4	1.1	-2.5	.	.	-4
CN(C)c1ccc(-c2ccccc2)nn1	-5	-3.2	-6	0.6	-3.8	5.1	-9	4
CC(C)(C)C1CCc2c(sc(NC(=O)c3cc(C4CC4)on3)c2C#N)C1 (stereo unspecified)	-4	-47	-15	1.3	-5.1	1.5	-1	15
O=c1[nH]c(O)c(/C=C2\C=Nc3ccccc32)[nH]1	-20	13	29	0.1	0.5	9.2	1	-3
O=c1[nH]c(=O)n(Cc2ccccc2)c2nc(-c3cccs3)n(CCO)c12	2	-65	.	1.3	-2.0	?	5	-1
Cc1ccc(-n2ncc3c(=O)[nH]c(SCC(=O)N4CC(=O)Nc5ccccc54)nc32)cc1	.	1.3	-9	0.2	-0.5	.	.	1
O=C(c1ccc(F)cc1)C1CCN(C(=O)c2c(F)cccc2F)CC1	2	1.8	-11	-0.4	-1.5	-2.0	6	-5
Fc1ccc(-n2cc(-c3ccccc3)c3c(NN4CCOCC4)ncnc32)cc1	-7	-20	0	-0.8	-4.3	1.8	-1	3
COc1ccc2cc3cc(C(=O)NCc4cccs4)oc3nc2c1	6	-483	2	-0.5	1.3	-1.9	1	6
Cc1nc(/C(N)=N/OC(=O)c2ccccc2Cl)c(C(F)(F)F)o1	-7	-1.8	3	-7.1	-1.2	1.1	-21	2
CCOc1ccccc1NC(=O)c1cccc(NC(=O)C2CCCC2)c1	-7	0.3	10	0.4	-2.1	0.6	-1	-1
COc1ccc(C2CCCCCN2Cc2nc3ccccc3c(=O)n2CC(N)=O)cc1 (stereo unspecified)	5	0.9	11	-0.3	1.6	-0.1	-16	-1
CCOc1ccccc1N1CCN(C(=O)c2ccc(S(=O)(=O)Nc3ccccc3)cc2)CC1	.	2.1	-2	-1.6	-0.7	.	.	-3
CCCCN1C(N)=NC[C@@H]1CCCCN	-7	1.9	3	0.0	3.7	-4.1	-2	-1
O=C(/C=C/NNC(=O)c1ccccc1)c1ccc(Br)cc1	6	2.1	12	-0.2	3.7	-1.8	-27	8
Cn1c(=O)c2c(SCc3ccccn3)nc(C3CC3)nc2n(C)c1=O	10	-0.4	-6	-3.4	-3.4	-5.5	-6	9
O=C(Cc1c(F)cccc1Cl)N(Cc1ccccc1)c1ccccn1	-4	-0.5	7	0.2	-1.9	3.2	12	6
CCc1noc(C)c1C(=O)OCC(=O)N(C)c1c(N)n(Cc2ccccc2)c(=O)[nH]c1=O	-4	0.9	-2	0.0	-9.8	-3.0	6	1
Cc1ccc(NC(=O)c2nc[nH]c2C(=O)NC2CCN(C(=O)OC(C)(C)C)CC2)cc1	.	-9.9	6	-0.6	2.6	.	.	-1
Cc1ccc2c3c1C(=O)C(=O)N3C(C)(C)CC2C (stereo unspecified)	24	3.1	1	0.0	2.6	2.3	-5	-8
Cc1cccc(N(CC(=O)N/N=C/c2ccccc2C(=O)O)S(C)(=O)=O)c1C	1	.	-2	0.8	2.4	-2.8	5	-9
Cc1cccc(C)c1OCC(=O)NCC1COc2ccccc2O1 (stereo unspecified)	.	2.8	-3	-0.5	-1.1	.	.	0
Cc1cc(C(=O)OCC(=O)NCCC(C)C)c2ccccc2n1	-11	-4.5	5	-0.8	2.3	0.4	-4	2
CCOC(=O)C1CCN(C(=O)c2cc(C(C)(C)C)nn2Cc2ccccc2)CC1	4	2.5	-1	1.6	-1.7	-3.5	8	-1
Cc1c(NC(=O)c2cc(C3CC3)on2)c(=O)n(-c2ccccc2)n1C	-9	-2.6	-7	0.5	1.9	5.7	0	-6
CN1OC(CC(=O)O)N(c2ccc(Cl)cc2)C1=O (stereo unspecified)	1	-0.1	3	1.0	3.0	?	3	1
O=C(c1ccc(Cl)cc1)N1CCN(CCc2ccccn2)CC1	-2	3.3	1	-0.6	-1.6	7.7	4	-4
CSc1cccc(NC(=S)NCCCO)c1	-14	1.4	-5	0.6	1.8	3.7	2	-2
N=C1C(c2nc3ccccc3s2)=C(O)CN1C1CCCCC1	12	0.9	16	0.3	-3.8	-3.0	5	2
COc1ccc(-n2nc3cc(N)c(Br)cc3n2)cc1	25	-2.7	0	-0.2	3.7	-3.9	-19	-2
COc1cc(C#CC#CCN2CCCCC2)ccc1O	-8	1.7	-4	-3.3	7.1	1.9	9	.
CCS(=O)(=O)N1CCC(C(=O)NCCCN2CCCCCC2)CC1	-11	0.8	8	0.2	1.8	-3.0	-9	5
Cn1c(CC(=O)Nc2ccccc2)nnc1SCCOc1ccccc1	-3	0.5	-70	-0.8	2.7	3.9	3	-7

High-throughput results as filed in PubChem.
